Vaccinia Venus: qHTS for Stage-Specific Inhibitors of Vaccinia Orthopoxvirus: Venus Reporter Primary qHTS; Vaccinia virus Venus reporter expression, fluorescence; Potency, µM (highest dose often 36.5 µM), inactives show at the highest dose activity change, negative = inhibition, actives largely listed as inhibitors; 0.46% of 330,000 active; AID 720580, 2013; active means well fitted inhibition curve with a large enough effect; inconclusive means small, poorly fitted or top-dose-only effect; inactive means no such curve, though single readings can be large or run the other way; tested in A549 cells; also: nearly all actives have a fitted effect of over 30% in size; inactives centre near -10
Vaccinia mCherry: qHTS for Stage-Specific Inhibitors of Vaccinia Orthopoxvirus: mCherry Reporter Primary qHTS | Vaccinia virus mCherry reporter infection, fluorescence; about a quarter of the inactives have no number | Potency, µM (highest dose often 36.5 µM), for the others: at the highest dose activity change, negative = inhibition, actives largely listed as inhibitors | 0.63% of 310,000 active | AID 720579, 2013; active = well fitted inhibition curve with a large enough effect; inconclusive = small, poorly fitted or top-dose-only effect; inactive = no such curve, though single readings can be large or run the other way; tested in A549 cells; also: nearly all actives have a fitted effect of over 35% in size; inactives centre near -10
* = called active by the depositor; i = inactive; ? = inconclusive; . = not tested or not shown; & = joins results of further samples; [ ] = dose if it differs, or a comment. % is scaled to controls: 0 for no effect and ±100 for the full control effect; potency is read from the fitted curve at half-maximal effect.

molecule	Vaccinia Venus	Vaccinia mCherry
O=C(O)C1Nc2c(Cl)cc(Cl)cc2C2C=CCC12 (centres undefined)	27.6%	-5.3%
CC1CCN(C(=O)CN(c2ccc(Cl)c(C(F)(F)F)c2)S(C)(=O)=O)CC1	-15.9%	i
CCN(CC)CCCn1c2c(c(SCC(=O)Nc3ccc4c(c3)OCO4)nc1=O)CCC2	-15.3%	-24.1%
CCc1ccc(NC(=O)Cn2ncc3c4ccccc4n(C)c3c2=O)cc1	0.4%&-1.1%	-8.7%
CC(=O)OCCNc1cc(N2CCN(C)CC2)c2noc3c2c1C(=O)c1ccccc1-3	210.0%[activator]	10.4%
COc1ccc(S(=O)(=O)N2CCOCC2)cc1NC(=O)COC(=O)CC1CC2CCC1C2 (centres undefined)	-6.8%	i
COc1ccccc1/C=C/CN1CCCC(CCC(=O)NCc2ccccc2F)C1 (centres undefined)	-12.9%	-13.2%
C=CC[C@@H](CC(=O)N(CCO)Cc1ccccc1)C(=O)N[C@@H](COC(=O)[C@@H](CC=C)Cc1ccc(F)cc1)Cc1ccccc1	?	?
CC1(C)S[C@@H]2[C@H](NC(=O)COc3ccccc3)C(=O)N2C1C(=O)OCc1ccccc1 (some centres undefined)	-9.9%&-2.8%	-16.4%
Cc1cc(C)n2c(NC3CCCCC3)c(CC(C)C)nc2n1	-9.5%	4.7%
CCCCN(C)C(=O)C1CCN(Cc2cccnc2)CC1	-0.9%	-11.8%
CC(C)(C)CC(C)(C)NC(=S)NC1CCN(Cc2ccccc2)CC1	?	-28.3%
C#CCOCCOCCOCCNc1nc(N2CCN(C(=O)[C@H](CCC(=O)O)n3cc([C@@H](N)[C@H](C)CC)nn3)CC2)nc(N2CCN(C(=O)[C@H](CCCCN)n3cc([C@@H](N)CC(N)=O)nn3)CC2)n1	-6.9%	-16.5%
CN1C(=O)NC(NS(=O)(=O)c2ccc(N)cc2)(C(F)(F)F)C1=O (centres undefined)	2.4%	6.8%
CCOC(=O)C1=C(O)C(Nc2nccs2)(C(F)(F)F)N=C1C (centres undefined)	-17.0%	-2.0%
COc1ccc(S(=O)(=O)N2CCN(C(=O)CCC3CCCC3)CC2)cc1	-17.3%	?
CCN1C(=O)[C@H]2[C@@H](c3ccc(C)cc3)N[C@]3(CCCN(CCC(C)C)C3=O)[C@H]2C1=O	-9.3%	i
Cc1ccc(OCCC(=O)OCC(=O)c2c(N)n(C)c(=O)n(C)c2=O)cc1	-5.7%	-8.3%
CCCCn1c(=O)c(-c2ccccc2)c(O)c2ccccc21	-22.3%	i
Cc1ccccc1CS(=O)(=O)c1nnc([C@H](Cc2ccccc2)NC(=O)OC(C)(C)C)o1	-28.8%	-22.9%
CCCCn1c(=O)c2c(O)cc(=O)oc2c2ccccc21	-26.7%	-29.0%
Cc1cc(Br)ccc1NC(=O)c1coc(=O)c2ccccc12	-12.6%	-12.2%
Cc1ccc(-c2ccc(CN3C(C)C(=O)N(Cc4cn(Cc5ccco5)nn4)CCS3(=O)=O)cc2)c(C)c1 (centres undefined)	-18.1%	i
COC(=O)c1ccc(NC(=O)CSc2nnc(-c3ccccc3Br)n2-c2ccccc2)cc1	-15.4%	i
CCOC(=O)c1[nH]c2c(c1C)C(=O)CC(c1ccc(OC)c(OC)c1)C2 (centres undefined)	-26.5%	.
COC(=O)[C@@]1(Cc2ccc(F)cc2)[C@H]2c3cc(C(=O)N(C)C)n(CCc4ccc(OC)c(Br)c4)c3C[C@H]2CN1C(=O)c1ccccc1	?	-16.3%
CN(C(=O)c1ccc(S(=O)(=O)c2cccc(Cl)c2)c([N+](=O)[O-])c1)C1CCCCC1	-22.4%	-22.3%
COc1cccc(-n2ccnc2SCC(=O)Nc2c(C)cc(C)cc2C)c1	-6.8%	-20.4%
O=C1OC(c2cccs2)Sc2ccccc21 (centres undefined)	-1.1%	14.7%
COc1ccc(-c2csc(NC(=O)CCn3cnc4ccccc4c3=O)n2)cc1OC	-20.6%	?
COC(=O)[C@]1(Sc2ccccc2)CC(=O)N[C@@H]1c1ccccc1	3.5%	20.7%
CC(C)OCCCNC(=O)C1CC(=O)N(CCc2ccc(F)cc2)C1 (centres undefined)	-5.2%	i
CCn1c(SCC(=O)Nc2ccc(OC)c(OC)c2)nnc1-c1cnccn1	-13.5%	-10.7%
COc1cc(/C=C/C(=O)Nc2nnc(C(C)(C)C)s2)cc(OC)c1OC	-9.0%	-15.5%
Cc1ccc2c(c1)c1c3n2CCN(CC#N)C3CCC1 (centres undefined)	-24.0%	-13.9%
COc1ccccc1C1C(C(=O)N2CCCCC2)=C(C)Nc2nc3ccccc3n21 (centres undefined)	-3.9%	-2.7%
O=C(C[n+]1cc(-c2ccc(Br)cc2)n2c1CCCCC2)c1ccccc1	-8.8%	-2.1%
CO[C@H]1[C@@H]2C=CO[C@@H](O[C@H]3O[C@@H](CO)[C@H](O)[C@@H](O)[C@@H]3O)[C@@H]2[C@@]2(CO)O[C@@H]12	-5.1%	-11.2%
COc1cc(S(=O)(=O)N2CCN3CCCC3C2)ccc1-n1cnnn1 (centres undefined)	-1.6%	i
CC1C(=O)N2CCCc3cc(S(=O)(=O)Nc4ccccc4C(N)=O)cc1c32 (centres undefined)	-14.8%	-1.7%
COc1ccc(C(=O)NCCS(=O)(=O)NCC2CCCO2)cc1 (centres undefined)	-9.1%	i
C[C@]12C(=O)N(c3ccc(C(F)(F)F)cc3)C(=O)N1[C@@H]1c3ccccc3OC[C@@H]1[C@H]2c1ccccc1	-18.0%	i
COc1cccc(N2C(=O)N(c3ccccc3)C3CS(=O)(=O)CC32)c1 (centres undefined)	2.2%	-10.8%
Cc1cc(COc2ccccc2OCCN2CCN(C)CC2)no1	-3.0%	.
Cc1cccc(NC(=O)c2ccc(C3SCC(=O)N3CCc3ccccc3)cc2)c1 (centres undefined)	?	-11.6%

Of the compounds above, 2 have a COOH group.
molecule	Vaccinia Venus	Vaccinia mCherry
O=C(O)C1Nc2c(Cl)cc(Cl)cc2C2C=CCC12 (centres undefined)	27.6%	-5.3%
C#CCOCCOCCOCCNc1nc(N2CCN(C(=O)[C@H](CCC(=O)O)n3cc([C@@H](N)[C@H](C)CC)nn3)CC2)nc(N2CCN(C(=O)[C@H](CCCCN)n3cc([C@@H](N)CC(N)=O)nn3)CC2)n1	-6.9%	-16.5%

Next section.
molecule	Vaccinia Venus	Vaccinia mCherry
NS(=O)(=O)c1ccc(NC(=O)C2Cc3ccccc3CN2C(=O)c2ccco2)cc1 (centres undefined)	-6.6%	i
CCOc1ccc(/C=N/NC(=O)CC(=O)NCc2ccccc2)cc1	-17.4%	i
COc1ccc(CNC(=O)C2Cc3ccccc3CN2C(=O)c2ccco2)cc1 (centres undefined)	-3.8%	i
Cc1cccc(C2=Nc3ccccc3N=C(c3cc(Cl)ccc3O)C2)c1	-0.8%	-9.8%
Cc1cc(Nc2ccc(Br)c(C)c2)n2nc(-c3ccco3)nc2n1	?	?
CS(=O)(=O)N(CC(=O)NCCC1=CCCCC1)c1cccc([N+](=O)[O-])c1	-17.2%	-11.2%
Fc1ccccc1N1CCN(C(c2cccs2)c2nnnn2CCc2ccccc2)CC1 (centres undefined)	-25.4%	-12.7%
CCCCN1C(=O)C(CC(=O)NCc2cccs2)CC(C(=O)N(CC)CC)=C1C (centres undefined)	-13.9%	i
O=C(CSc1nc2ccccc2[nH]1)N1CCN(c2ccc(F)cc2)CC1	-13.9%	-29.6%
COc1cc(/C=N/Nc2ccccn2)ccc1OCC(C)C	-25.1%	?
CCNC(=O)C(=O)NCC(c1ccc2c(c1)OCO2)N1CCOCC1 (centres undefined)	-17.9%	-23.9%
CCOC(=O)C1CCCN(C(=O)C2CCN(S(=O)(=O)c3ccc(Cl)c(C(F)(F)F)c3)CC2)C1 (centres undefined)	-14.6%	-11.5%
CCc1ccc(NC(=O)Cn2cnc3sc(C)c(S(=O)(=O)N4CCC(C)CC4)c3c2=O)cc1	-12.6%	-14.3%
CC(C)c1ccc(S(=O)(=O)Nc2cc3c(cc2NCc2ccccc2)n(C)c(=O)n3C)cc1	-13.4%	-4.4%
CC(C)CCC(C)NC(=O)c1ccc2nccnc2c1 (centres undefined)	-8.7%	i

Some values from the results shown:
For Vaccinia Venus, O=C(C[n+]1cc(-c2ccc(Br)cc2)n2c1CCCCC2)c1ccccc1 shows -8.8%
For Vaccinia Venus, Cc1ccc(OCCC(=O)OCC(=O)c2c(N)n(C)c(=O)n(C)c2=O)cc1 shows -5.7%

Continued.
molecule	Vaccinia Venus	Vaccinia mCherry
CCOCCCNC(=O)c1cc(=O)n(Cc2cccc(C)c2)c2ccccc12	-24.5%	-15.2%
Cc1cc(NC(=O)COC(=O)CNC(=O)c2cccs2)c([N+](=O)[O-])cc1C	-12.5%	i
Cc1ccc(CNC(=O)Cn2ccn(-c3cc(C)cc(C)c3)c(=O)c2=O)cc1	-10.5%	-7.4%
COc1cccc(CN(C)C(=O)c2cc(-c3ccc(OC)c(OC)c3)nc3ccccc23)c1	-18.9%	-0.3%
O=C(NCc1ccc2c(c1)OCO2)C1CCCN1C(=O)Nc1cccc(F)c1 (centres undefined)	6.3%	-4.7%
C[C@H]1CN([C@@H](C)CO)S(=O)(=O)c2ccc(C3=CCCC3)cc2O[C@@H]1CN(C)C(=O)C1CCCCC1	?	?
Cc1cccc(NC(=O)CSc2nc3ccc(NC(=O)COc4ccc(Cl)cc4)cc3s2)c1	-23.2%	-1.5%
Cc1ccc(OCCN2CCN(C(=O)CCC(=O)Nc3nnc(CC(C)C)s3)CC2)cc1	-10.4%	-18.8%
Cc1ccn2c(NC3CCCC3)c(-c3ccsc3)nc2c1	1.3%	?
O=C(NCc1ccco1)c1ccc2c(c1)N(Cc1ccccc1)C(=O)CS2=O (centres undefined)	-8.2%	i
COc1cccc(CNC(=O)c2ccc(NC(=O)N3CCCCc4ccccc43)cc2)c1OC	-9.4%	-23.8%
CN(Cc1cnn(-c2ccc(F)cc2)c1)C(=O)[C@H]1O[C@@H](n2ccc(N)nc2=O)[C@H](O)[C@@H]1O	-0.9%	6.0%
CCOc1cccc(NC(=O)Cn2nc(-c3ccc4c(c3)OCCO4)ccc2=O)c1	-17.5%	.
CCOC(=O)c1sc(NC(=O)CCC(=O)O)nc1C	-3.0%	-15.9%
COc1ccc(C(=O)NCCS(=O)(=O)N2CCc3ccccc3C2)c(OC)c1	-12.5%	i
O=C(COC(=O)CN1C(=O)c2ccccc2C1=O)NC1CCCCC1	-6.8%	-10.4%
Cc1cc(NC(=O)CN2C(=O)c3ccccc3S2(=O)=O)no1	-9.7%	i
O=C(CF)NC(Nc1cccc2cccnc12)C(Cl)(Cl)Cl (centres undefined)	-5.2%	i
Cc1cnc(C(=O)OCC(=O)Nc2ccc(Oc3ccccc3)cc2)cn1	-9.7%	.
CN(C(=O)c1ccc(NC(=O)C2CCCN(C(=O)OC(C)(C)C)C2)cc1)C1CCC1 (centres undefined)	-19.4%	-10.3%
CC(C)(C)OC(=O)N1CCC(c2c(C(=O)NCCN3CCc4ccccc4C3)cnn2-c2ccc(F)cc2F)CC1	-27.4%	-26.6%
CC(C)Cn1c(=O)c2c(nc3n2CC(C)CN3Cc2ccccc2)n(C)c1=O (centres undefined)	-18.3%	-9.1%
CC(=O)Nc1ccc(CN2C(=O)C(C)ON=C2c2ccccc2-c2ccco2)cc1 (centres undefined)	10.5%	24.3%
CCCn1nc(C(=O)OCc2nc(N)nc(Nc3ccccc3C)n2)c2ccccc2c1=O	-12.6%	-8.5%
COc1cc(C(=O)OCC(=O)Nc2ccc3c(c2)OC(F)(F)O3)ccc1OCc1c(C)noc1C	-17.8%	-12.4%
COc1ccc(N(C(=O)c2csnn2)C(C(=O)NC2CCCC2)c2ccccc2)cc1 (centres undefined)	-10.7%	-14.7%
Cc1ccccc1CCNCc1ccc(Br)cc1	-29.6%	-10.2%
COc1ccccc1CNC(=O)C(C)n1nc(C)n2c(cc3occc32)c1=O (centres undefined)	-11.7%	-11.8%
O=C(Nc1ccccc1)c1snc2c(=O)[nH]cnc12	-15.1%	-8.8%
CCc1cccc(C)c1NC(=O)CCS(=O)(=O)c1ccc2c(c1)oc(=O)n2C	2.4%	-3.9%
CCN(CC)C(=O)Oc1ccc2c(=O)c(-c3ccc(OC)cc3)coc2c1	-24.5%	?
CCOC(=O)CSc1ccc(-c2nc3ccccc3[nH]2)cn1	19.4%	13.9%
COc1ccc2oc(C(=O)OCC(=O)N3CCCC3=O)c(C)c2c1	-4.9%	-9.9%
O=C(O)CSC1CC(=O)N(c2ccc(F)cc2)C1=O (centres undefined)	-10.6%	i
COc1ccc(N2CC(C(=O)Nc3nnc(SCc4ccccn4)s3)CC2=O)cc1 (centres undefined)	-11.1%	i
CCOC(=O)/C(=C/c1ccc(OC)cc1)NC(=O)c1ccco1	0.4%	-11.9%
Cc1cccc(-c2noc(CCc3ccccc3)n2)c1	-0.7%	-1.5%
Cn1c(SCC(=O)N2c3ccccc3Sc3ccccc32)nc2ccccc21	-11.0%	-20.7%
Cc1cc(C)c(C)c(C(O)(C(=O)O)c2ccccc2)c1 (centres undefined)	-18.4%	i
NC(=O)CC(NC(=O)c1cccc(Br)c1)c1ccc(NC2CCN(Cc3ccccc3)CC2)c([N+](=O)[O-])c1 (centres undefined)	-9.7%	-8.3%
Cc1cc(-c2ccccc2C(=O)NCc2ccccc2)on1	11.0%	.

The order is random, and some 0.88% of all compounds hit somewhere here.
